# From PubChem BioAssay
# Vif A3G = inhibitors of Vif binding to APOBEC3G peptide, primary screen, biochemical, TR-FRET, GST-Vif 1-94, biotin-A3G peptide, dose response retest (AID 1117319) | inhibition, %, or IC50 in µM where a hit was titrated | TR-FRET GST-Vif / biotin-A3G peptide binding; higher % means a stronger effect; test concentration not given here; strong numbers were not always called active | 260,000 compounds, 0.57% hits | Virion infectivity factor (Human immunodeficiency virus type 1 group M subtype B (isolate …;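 active means above the screen mean plus three standard deviations and confirmed in dose response; inconclusive means results disagree or hit not tested in dose response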;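 further: Vif residues 1-94 fused to GST binding biotinylated APOBEC3G peptide 110-148; 0% = full assay without inhibitor and 100% = GST in place of GST-Vif; retest series ran down from 100 µM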
# rRNA inh HTS = reduced GFP signal of wild-type E. coli, primary screen, bacterial rRNA inhibitor project, GFP/RFP fluorescence, OD600, single point. E. coli WT GFP vs humanized-ribosome RFP mutants, 24 h; stronger effect = lower value; DMSO median 0, no signal -100. GFP signal change (wild-type ribosome), % (concentration not given with the values). 350,000 compounds, 1.6% hits. AID 720706, 2013;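 active means significant combined selectivity score with lowered wild-type GFP, culture density cut under 30%, mutant RFP and density less affected; inactive means any of these conditions unmet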; further: one replicate is shown; some compounds called inactive have numbers as strong as hits
# Ecoli growth = E. coli growth inhibition, primary screen, OD600; Escherichia coli growth, 23 h; stronger effect = lower value; OD600 absorbance (no concentration beside the values); 330,000 compounds, 0.21% hits; AID 1053175, 2014;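 active means OD600 absorbance below the run mean of sample wells minus 3.6 SD, in any replicate, cut at about 0.56 in these data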;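 further: stock transfer was 300 nL into about 60 µL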
# ALR inh = inhibitors of human ALR sulfhydryl oxidase, primary screen, biochemical, H2O2 detection, HRP-luminol luminescence, single point | inhibition, % (test concentration not listed) | AID 485317, 2010 | purified ALR, DTT oxidation | 290,000 compounds, 3.8% hits;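 active means mean and each replicate at 75% or more; inconclusive means only one of the two met; inactive means neither met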;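 further: stock transfer was 7.5 nL into about 7.5 µL; 0% = neutral wells and 100% = wells with inactivated enzyme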
# Target sequence (P55789 whole entry, looked up): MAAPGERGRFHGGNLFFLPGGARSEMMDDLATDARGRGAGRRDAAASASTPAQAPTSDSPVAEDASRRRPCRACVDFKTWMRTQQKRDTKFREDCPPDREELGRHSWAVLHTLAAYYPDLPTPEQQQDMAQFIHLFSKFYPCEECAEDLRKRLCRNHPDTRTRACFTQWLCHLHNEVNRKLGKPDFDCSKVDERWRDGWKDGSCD
# AF4-AF9 inh = inhibitors of AF4 peptide binding to AF9, primary screen, biochemical, AlphaScreen, biotin-AF4 peptide, FLAG-AF9, single point. Protein AF-9 (Homo sapiens), P42568. inhibition, % at 10 µM. 350,000 compounds, 0.47% hits;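 active means every replicate reaching a set inhibition limit, whatever the replicate mean, cut at about 25% in these data; inconclusive means mean inhibition reaches that limit but some replicates miss it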;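 further: 0% = plate neutral control median and 100% = total signal loss; the record names both 10 and 1 µM as test concentration; the first replicate is given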
# HNF4A DNA FP = change in binding of human HNF4A to DNA, primary screen, biochemical, fluorescence polarization, FITC-DNA. Hepatocyte nuclear factor 4-alpha (Homo sapiens), P41235. AID 1224865, 2016. activity change, % at 10 µM. 360,000 compounds, 0.3% hits. 1 h; in the data active means activity change above about 30%, passing the limit was not always enough;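 further: controls were the assay level and a saturating level of protein; the project sought stronger binding though the title names inhibitors; some compounds called inactive have numbers as strong as hits; positive values seem to mean higher polarization but the record does not say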
# Target sequence (P41235 whole entry, looked up): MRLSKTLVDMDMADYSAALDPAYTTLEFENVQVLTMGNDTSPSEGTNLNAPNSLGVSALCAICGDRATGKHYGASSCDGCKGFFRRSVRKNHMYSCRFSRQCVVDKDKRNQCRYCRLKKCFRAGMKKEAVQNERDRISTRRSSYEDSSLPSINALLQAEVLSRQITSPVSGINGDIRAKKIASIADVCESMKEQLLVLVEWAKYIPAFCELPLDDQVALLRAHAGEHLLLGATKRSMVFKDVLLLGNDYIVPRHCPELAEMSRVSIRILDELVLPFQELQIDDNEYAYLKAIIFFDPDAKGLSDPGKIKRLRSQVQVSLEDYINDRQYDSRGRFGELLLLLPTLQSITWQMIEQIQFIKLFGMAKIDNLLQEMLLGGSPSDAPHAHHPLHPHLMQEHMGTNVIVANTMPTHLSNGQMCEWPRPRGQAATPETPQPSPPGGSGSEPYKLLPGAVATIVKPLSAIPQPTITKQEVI
# FGF22 binding = binders of human FGF22 protein, primary screen, FGF22 synaptogenesis inhibitor project, biophysical, thermal shift, single point | recombinant FGF22 thermal shift, SYPRO orange fluorescence; percent of sucrose octasulfate shift, DMSO zero | calls only at 9.99 µM | 340,000 compounds, 1.5% hits | AID 651658, 2012;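 active means melting point raised past a set limit in the mean and every replicate; inconclusive means no clear call; three in four hits are not shown here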
# Target sequence (Q9HCT0 whole entry, looked up): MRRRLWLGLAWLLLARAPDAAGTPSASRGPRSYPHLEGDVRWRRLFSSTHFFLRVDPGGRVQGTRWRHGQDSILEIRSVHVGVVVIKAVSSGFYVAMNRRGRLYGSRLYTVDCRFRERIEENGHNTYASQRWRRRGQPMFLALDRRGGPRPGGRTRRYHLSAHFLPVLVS
# rRNA inh HTS OD600 = recorded beside rRNA inh HTS, whose call it bears; OD600 change, %; measured here: OD600 growth;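 optical density of the mix in the first replicate; 0 = DMSO median and -100 = no signal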
# rRNA inh HTS RFP = recorded beside rRNA inh HTS, whose call it bears; RFP signal change, %; measured here: RFP humanized mutant strains;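 first replicate; 0 = DMSO median and -100 = no signal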
# An asterisk follows results filed as active; i = inactive; u = inconclusive; x = no result given. This is a subset; count on the stated rates, not on these rows.
SMILES,Vif A3G,rRNA inh HTS,rRNA inh HTS OD600,rRNA inh HTS RFP,Ecoli growth,ALR inh,AF4-AF9 inh,HNF4A DNA FP,FGF22 binding
CSc1n[nH]c(-c2ccc(C(F)(F)F)cc2)n1,x,x,x,x,0.61,-5,2.0,-2.5,i
CCN(C[C@H]1[C@H](c2ccccc2)[C@@H](CO)N1CC1CC1)C(=O)c1ccccn1,x,3,9,-0.4,x,x,-1.8,x,i
CCNC(=O)COn1c(SCC(=O)NCC)nc2ccccc2c1=O,3%,x,x,x,0.7,-12,x,0.8,x
C/C=C/c1ccc2c(c1)O[C@H](CN(C)C)[C@H](C)CN([C@H](C)CO)S2(=O)=O,x,1,-3,0.3,x,x,-1.1,x,i
Cc1noc(C)c1S(=O)(=O)N(C)C[C@H]1Oc2ccc(NS(=O)(=O)c3cn(C)cn3)cc2C(=O)N([C@H](C)CO)C[C@@H]1C,7%,11,9,-0.2,0.72,3,-0.3,1.8,i
C[C@@H]1CN([C@@H](C)CO)C(=O)c2cccc(NC(=O)c3cnccn3)c2O[C@@H]1CN(C)S(=O)(=O)c1cn(C)cn1,x,1,6,-1.7,x,x,-1.8,x,i
C[C@@H]1CCCCO[C@@H](CN(C)S(=O)(=O)c2ccc(Cl)cc2)[C@@H](C)CN([C@@H](C)CO)C(=O)c2cc(NS(C)(=O)=O)ccc2O1,x,-2,8,-1.4,x,x,-1.8,x,i
Cc1ccc(NC2OC(C(O)CO)C(O)C2O)cc1[N+](=O)[O-] (configuration not stated),u,x,x,x,0.73,-2,x,0.8,x
COc1ccccc1CNC(=O)C1CCC(=O)N(CCCc2ccccc2)C1 (configuration not stated),x,1,6,4.6,0.71,-50,0.7,1.7,i
O=C(c1ccc(=O)[nH]n1)N1CCc2ccccc2C1,x,11,-2,4.8,0.66,x,-0.1,0.1,i
CN(C)c1ccc(/C=N/n2ncc3ccccc32)cc1,10%,x,x,x,x,50,x,8.2,x
Cc1ccnc(NS(=O)(=O)c2ccc(NC(=O)Cc3ccc(Br)cc3)cc2)n1,-10%,-21,-5,10,0.68,x,-1.9,-1.8,i
COc1cccc(-c2ccc3c(c2)O[C@H](CN(C)C(=O)C2CCC2)[C@H](C)CN([C@H](C)CO)S3(=O)=O)c1,x,-6,-19,4.3,x,x,-1.7,x,i
COCC#Cc1ccc2c(c1)O[C@H](CN(C)C(=O)Nc1ccccc1F)[C@@H](C)CN([C@@H](C)CO)S2(=O)=O,x,-4,-5,-0.2,x,x,-1.4,x,i
CC(C)(C)C1=Nn2c(nnc2-c2ccccn2)SC1,1%,x,x,x,0.67,-1,x,2.0,x
COCCNC(=O)C(C)N1c2cccc3cccc(c23)S1(=O)=O (configuration not stated),-7%,x,x,x,0.72,-42,x,0.1,x
CC[C@]12c3[nH]c4cc(CCC(=O)N(C)C)ccc4c3CCN1C(=O)[C@@H](CC(=O)NCC13CC4CC(CC(C4)C1)C3)C[C@@H]2C(=O)N1CCN(C(=O)c2ccco2)CC1,-4%,3,-9,1.1,0.71,x,3.9,2.0,i
CC(C)C(NC(=O)c1c(F)cccc1F)C(=O)OCN1C(=O)c2ccccc2C1=O (configuration not stated),3%,1,-1,-2.4,0.66,x,0.7,-1.1,i
Cc1cc(-c2cc(-c3ccc(Cl)cc3)on2)nc(NC2CCCC2)n1,0%,12,13,1.5,0.69,2,x,0.3,i
COc1ccc(-c2noc(CN(C)S(=O)(=O)c3ccc(Cl)cc3)n2)cc1OC,u,x,x,x,0.75,-9,x,-0.1,x
COc1ccc(NC(=O)CC2(CC(=O)O)CCCC2)cc1,4%,1,14,-2.0,0.67,x,-1.4,-0.7,i
COCc1cn(CC[C@@H]2CC[C@H](NC(=O)Nc3ccc(F)cc3)[C@@H](CO)O2)nn1,x,-1,-2,-0.4,x,x,-0.5,x,i
Cc1nn(-c2ccccc2)c(C)c1/C=N/NC(=O)CSc1nnc(SCc2ccc(Cl)cc2)s1,x,x,x,x,x,-5,-3.3,-2.6,i
CCC1CCCCN1C(=O)COc1ccc(S(=O)(=O)N2CCOCC2)cc1Cl (configuration not stated),7%,x,x,x,0.65,-2,-0.6,-2.0,i
COCC1CCCN(C(=O)c2cc(COc3cncc(Cl)c3)on2)C1 (configuration not stated),x,1,2,-4.4,0.66,-2,0.8,-3.2,i
CCNC(=O)C[C@H]1CC[C@H]2[C@@H](COC[C@@H](O)CN2Cc2ccncc2)O1,x,4,14,0.3,x,x,-3.4,x,i
Fc1cccc(Cc2c(C3CCCCC3)nc3ccc(Cl)cn23)c1,x,-22,-56,1.6,x,x,3.0,7.1,i
CCCC#Cc1cnc2c(c1)C(=O)N([C@@H](C)CO)C[C@H](C)[C@H](CN(C)C(=O)Cc1cccnc1)O2,x,2,3,1.0,x,x,-3.3,x,i
CCOC(=O)c1sc(NS(=O)(=O)c2ccc(C)cc2)nc1C,6%,x,x,x,0.69,49,x,-2.2,x
Nc1nc(-c2cc(Cl)cc(Cl)c2OC(F)F)cs1,x,-44,-42,-15,0.66,-7,-0.5,-3.0,i
Cc1cc(C(=O)CCC(=O)N2CCN(c3ccccc3F)CC2)c(C)s1,-4%,-40,-68,-1.4,0.68,4,-2.2,0.7,i
COc1ccc(CN(C)C[C@@H]2Oc3ccc(NS(=O)(=O)c4cn(C)cn4)cc3C(=O)N([C@@H](C)CO)C[C@@H]2C)cc1,x,3,9,-0.7,x,x,-1.5,x,i
CN(C)c1ccc(/C=c2\sc3n(c2=O)CCCN=3)cc1,19%,x,x,x,x,99*,x,26,x
CCOc1ccc(C2c3[nH]c4ccccc4c3C[C@H]3C(=O)N(C4CC4)CC(=O)N23)cc1OC (some centres not stated),-11%,-1,0,4.4,0.68,17,3.2,1.1,i
COc1cccc(N2CCN(C(=O)c3ccc(CS(=O)Cc4ccc(Cl)cc4)o3)CC2)c1 (configuration not stated),x,-5,-22,-0.4,0.65,-4,2.5,1.3,i
CC(C)c1ccc(Nc2c([N+](=O)[O-])c(=O)n(C)c3ccccc23)cc1,6%,-8,-10,-1.4,0.65,-15,0.6,1.2,i
CO[C@@H]1CN(C)C(=O)c2cc(NS(=O)(=O)c3ccc(Cl)cc3)ccc2OC[C@@H](C)N(C(=O)Cc2cccnc2)C[C@H]1C,x,-5,-2,-1.5,x,x,-0.9,x,i
O=C(CC1C(=O)NCCN1Cc1ccc(F)c(F)c1)NCCn1cccn1 (configuration not stated),-4%,10,8,2.6,0.71,-4,u,-0.3,i
COc1cccc(NC(=O)N2CCC(NC(=O)C(Cc3ccccc3OC)NC(C)=O)CC2)c1 (configuration not stated),x,9,6,-2.6,0.68,x,0.8,1.1,i
Cc1cc(C)c2c(n1)sc1c(N3CCCCC3)ncnc12,-1%,10,12,3.2,0.71,-2,x,0.1,i
COc1ccc(/C=N/N=C2/NC(=O)CC(C(=O)O)S2)cc1 (configuration not stated),13%,5,4,-1.6,x,3,0.7,1.9,i
CC(=O)Nc1ccc(-n2nnnc2SCC(=O)NCc2cccs2)cc1,x,5,1,0.7,0.67,x,-1.7,0.6,i
CCOC(=O)COc1c(Br)cc(C2NC(=O)NC(C)=C2C(C)=O)cc1OC (configuration not stated),-2%,x,x,x,0.68,-3,x,-1.8,x
Cc1noc(C)c1NC(=O)Nc1ccc2c(c1)CC(=O)N([C@H](C)CO)C[C@H](C)[C@H](CN(C)C(=O)Nc1ccccc1)O2,x,4,3,-1.4,x,x,-2.7,x,i
COc1ccc(NC(=O)c2cccc(S(=O)(=O)N3CCOCC3)c2)cc1,x,2,4,2.9,0.7,-7,0.9,-0.7,x
CCCNC(=O)N1C[C@H](O)COC[C@@H]2O[C@@H](CC(=O)N3CCC(Cc4ccccc4)CC3)CC[C@H]21,x,-5,-9,12,x,x,-2.0,x,i
CCCSc1cc(N)cc([N+](=O)[O-])c1,-12%,x,x,x,0.69,-3,6.9,-1.6,x
COc1cccc(NC(=O)C2CCN(C(=O)NC3CCCCC3)CC2)c1,x,1,3,0.6,0.7,0,-0.6,-1.7,i
O=C(NN1C(=O)C2CCCCC2C1=O)c1ccco1 (configuration not stated),24%,4,13,3.0,0.64,-2,x,-4.8,i
C[C@H]1CN([C@@H](C)CO)C(=O)c2cc(NC(=O)CCC(F)(F)F)ccc2O[C@@H]1CN(C)C(=O)Nc1ccc2c(c1)OCO2,x,3,12,1.7,x,x,-3.7,x,i
CCCC1=C(C(=O)OCC)C(c2ccc(F)cc2)n2ncnc2N1 (configuration not stated),u,x,x,x,0.71,9,x,1.5,x
O=C(CCc1ccccc1)NCCCN1CCOCC1,-1%,x,x,x,0.7,-1,x,-0.3,x
O=C(COC(=O)COc1ccc(Cl)cc1Br)NC1CCCC1,-10%,-3,0,-1.1,x,x,5.9,-1.6,i
COCCNC(=S)Nc1ccc2nc(N3CCN(C)CC3)cc(C)c2c1,-3%,2,-8,-1.9,0.68,-4,7.6,3.7,i
O=S(=O)(c1cccs1)N1CCCCN2[C@H](C1)[C@H](c1ccc(C3=CCCC3)cc1)[C@@H]2CO,x,-5,-10,-0.5,x,x,-2.6,x,i
O=C(NC1CCCCC1)c1ccc(Cn2cc(Cl)cn2)cc1,2%,x,x,x,0.7,-4,x,2.6,x
CSc1ccc(Cn2nnc(C(=O)Nc3ccc(C)c(C)c3)c2N)cc1,-3%,12,15,3.3,0.77,-25,-5.3,-1.6,i
CO[C@H]1CN(C)C(=O)c2ccc(NC(C)=O)cc2OC[C@@H](C)N(Cc2ccccn2)C[C@H]1C,x,2,2,-1.1,x,x,-0.3,x,i
CCCNC(=O)Nc1ccc2c(c1)OC[C@@H](C)N(S(C)(=O)=O)C[C@H](C)[C@@H](OC)CN(C)C2=O,x,0,3,0.4,x,x,-7.3,x,i
CCn1c(=NC(=O)CN2C(=O)CCC2=O)sc2c(C)cc(C)cc21,0%,2,-1,-1.9,x,x,-2.7,2.3,i
# (further entries)
SMILES,Vif A3G,rRNA inh HTS,rRNA inh HTS OD600,rRNA inh HTS RFP,Ecoli growth,ALR inh,AF4-AF9 inh,HNF4A DNA FP,FGF22 binding
CCN(CC1CCCN(CCc2cccc(OC)c2)C1)C(=O)c1ccoc1 (configuration not stated),x,5,5,-2.5,0.71,-2,-0.3,2.1,i
Cc1ccc(Cc2nc(-c3cccc(C)c3)no2)cc1,-3%,x,x,x,0.68,1,x,-0.4,x
Cc1ccc(-c2csc(N3CCC[C@@H]3C(=O)NCCn3c(C(F)(F)F)nc4ccccc43)n2)cc1,x,1,30,38,x,3,6.1,2.3,i
Cc1csc(NC(=O)c2cc(C)oc2C)n1,9%,x,x,x,0.69,17,x,2.7,x

# A portion from the list above:
SMILES,Vif A3G,rRNA inh HTS,rRNA inh HTS OD600,rRNA inh HTS RFP,Ecoli growth,ALR inh,AF4-AF9 inh,HNF4A DNA FP,FGF22 binding
CCn1c(=NC(=O)CN2C(=O)CCC2=O)sc2c(C)cc(C)cc21,0%,2,-1,-1.9,x,x,-2.7,2.3,i
CCN(CC1CCCN(CCc2cccc(OC)c2)C1)C(=O)c1ccoc1 (configuration not stated),x,5,5,-2.5,0.71,-2,-0.3,2.1,i
